NPYLR7 ag: activates Aedes aegypti NPYLR7 receptor. 270,000 compounds, 0.15% hits. activation, % at 10 µM. HEK293T NPYLR7/Galpha15, GCaMP6s calcium fluorescence; in the data active = activation above about 40%;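 note: 0% = vehicle and 100% = reference agonist at the receptor; some compounds past the cut are filed as inactive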
NPYLR7 ag max-min: recorded beside NPYLR7 ag, whose call it bears; activation, %; measured here: Max-Min RFU normalised activation; some inactives read as strong as hits;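 span of the calcium signal over five minutes; 0% = vehicle and 100% = native peptide agonist; compound fluorescence can raise it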
An asterisk follows results filed as active; & = joins results of further samples. This is a subset; count on the stated rates, not on these rows.

SMILES	NPYLR7 ag	NPYLR7 ag max-min
Cc1cccn2c(CC(=O)N(C)C(C)c3ccon3)cnc12 (stereo not drawn)	2.5	0.8
CC1CCCC(C)N1Cn1nc2sc3ccccc3n2c1=S (stereo not drawn)	5.1	2.8
CC(C)(C)c1ccc(C(=O)Oc2coc(CSc3ncccn3)cc2=O)cc1	-15.0	-8.5
Cc1cccn2c(=O)nc(SCC(=O)Nc3cccc(Cl)c3)nc12	7.9	4.9
CCc1ccc(CN(C)C(=O)c2cc(COc3ccc(-n4cncn4)cc3)on2)nc1	2.5	-1.2
Cc1ccccc1N=C1SCCCN1C(=O)c1ccc2c(c1)OCO2	1.5	0.0
COc1ccc2[nH]c3c(c2c1)CCN(C(=O)c1cc(C(C)(C)C)nn1Cc1ccccc1)C3c1ccc(COC(C)=O)o1 (stereo not drawn)	12.8	-1.6
c1ccc2c(OCc3nn[nH]n3)cccc2c1	7.9	2.1
COC(=O)c1cc2n(n1)CCN(C(=O)c1cnc(CN3CCCC3)s1)C2	0.2	1.5
Cc1c(C(=O)NCCN2CCOCC2)cc(-c2ccc(Cl)cc2)n1-c1ccccc1F	-4.6	1.0
O=C(NCCCN1CCOCC1)C(C1CCCC1)N1CCN(C(=O)c2ccc(Cl)cc2)CC1 (stereo not drawn)	24.4	23.5
Cc1nc(CN2CCOc3ccc(Cl)cc32)no1	1.2	-0.4
Cn1c(=O)n(CC(=O)N2CCCC2)c(=O)c2c(N3CCN(C(=O)C4CC4)CC3)ccnc21	1.1	-1.1
CC1(C)C(=O)Nc2ccc(S(=O)(=O)Nc3ccnn3C3CCCCC3)cc21	-6.4	-11.6
O=C(C=Cc1cccs1)N1CCN(Cc2nc3ccccc3s2)CC1	-3.2	-4.4
CCCNC(=O)Cn1nc2c(c1NC(=O)C(c1ccccc1)c1ccccc1)CSC2	-8.5	-15.7
CC(C)c1noc(-c2ccc(N(C)CC(O)c3ccccc3)nc2)n1 (stereo not drawn)	10.5	-1.5
COc1ccccc1C(C)NC(=O)C1CC2CCCC(C1)C2=O (stereo not drawn)	1.2	-0.6
COc1ccc(-c2cc(N)n(-c3ccc(C(=O)Nc4ccccc4C(C)C)cc3)n2)cc1	-20.2	-24.2
CN(Cc1ccco1)c1ncncc1I	2.1	2.0
Cc1ccccc1CN1CCN(c2ccc(S(=O)(=O)N(C(C)C)C(C)C)cn2)CC1	7.9	5.5
N#Cc1ccccc1C(=O)N1CCOC(COCc2c(Cl)cccc2Cl)C1 (stereo not drawn)	-7.8	-10.3
Cc1ccc(Cl)cc1NC(=O)Cn1cnc2scc(-c3cccs3)c2c1=O	6.5	15.0
Fc1ccc(-n2c(-c3snnc3-c3ccccc3)n[nH]c2=S)cc1	-8.0	-17.9
O=C(CSc1nnc(-c2cccs2)o1)N1CCCC1	15.4	5.0

The last 7 records of the section before come first, to join the parts.
SMILES	NPYLR7 ag	NPYLR7 ag max-min
COc1ccc(-c2cc(N)n(-c3ccc(C(=O)Nc4ccccc4C(C)C)cc3)n2)cc1	-20.2	-24.2
CN(Cc1ccco1)c1ncncc1I	2.1	2.0
Cc1ccccc1CN1CCN(c2ccc(S(=O)(=O)N(C(C)C)C(C)C)cn2)CC1	7.9	5.5
N#Cc1ccccc1C(=O)N1CCOC(COCc2c(Cl)cccc2Cl)C1 (stereo not drawn)	-7.8	-10.3
Cc1ccc(Cl)cc1NC(=O)Cn1cnc2scc(-c3cccs3)c2c1=O	6.5	15.0
Fc1ccc(-n2c(-c3snnc3-c3ccccc3)n[nH]c2=S)cc1	-8.0	-17.9
O=C(CSc1nnc(-c2cccs2)o1)N1CCCC1	15.4	5.0
CCNC(=O)C1(C)CCN(Cc2noc(-c3ccccc3)n2)C1 (stereo not drawn)	0.9	4.6
Cn1c(COc2ccccc2Cl)n[nH]c1=S	-2.7	-4.2
CN(Cc1ccccc1)Cc1cc(C(=O)N(C)Cc2ccoc2)no1	-1.1	-1.1
COc1ccc(-n2nnc(C(=O)OCc3nc(-c4cccc(OC)c4OC)oc3C)c2C)cc1Cl	2.5	-5.7
CCP(=O)(CC)C(C)(C)CP(=O)(c1ccccc1)c1ccccc1	8.1	5.0
O=C(c1cccc(OC(F)F)c1)N1CCN(Cc2ccc(-c3noc(-c4ccco4)n3)cc2)CC1	-7.7	-13.1
O=C(CSc1nc(=O)[nH]c2c1CCC2)N1CCOCC1	0.1	-5.3
Cc1nn(-c2ccccc2)c(Oc2ccccc2Cl)c1CN(CC(O)Cc1ccccc1)CC1CCCO1 (stereo not drawn)	12.3	11.6
COc1ccc(-n2nc3cc(C)c(NC(=S)NC(C)=O)cc3n2)cc1Cl	-2.1	-2.1
CN(C(=O)c1ccc(CS(=O)(=O)c2ccccc2)o1)C1CCCCC1	0.1	0.1
Cc1csc(SCC(=O)NCc2cccnc2Oc2ccccc2)n1	5.7	3.4
Cc1nc(CN2C(=O)C(Cc3ccccc3)ON=C2c2ncccc2C)cs1 (stereo not drawn)	7.2	1.6
COc1ccc(-c2nc(SC(C)C(=O)NCC3CCCCC3)n[nH]2)cc1 (stereo not drawn)	0.0	8.8
O=C(NC1CCCN(CCc2ccccc2)C1)c1ccccc1C(F)(F)F (stereo not drawn)	8.2	6.0
O=C(c1ccccc1)C(Sc1nnc(-c2ccc3c(c2)OCO3)o1)c1ccccc1 (stereo not drawn)	0.2	-1.2
CCn1c(C)cc(O)c(C(c2ccc(Cl)cc2)N2CCC(C)CC2)c1=O (stereo not drawn)	9.7	2.1
c1ccc(-c2nc3c(c(NC[C@@H]4CCCO4)n2)CCNC3)nc1	3.6	2.5
COc1cc(OC)cc(N2C(=O)/C(=C\c3cc(OC)c4c(c3)OCO4)N(C)C2=S)c1	-7.6	2.8
O=C(c1cccc(N2CCNC2=O)c1)N1CCn2cncc2C1	10.4	3.2
CCCCS(=O)(=O)N1CCN(C(=O)c2cc(-c3cccc(OC)c3)n(-c3ccccc3)c2C)CC1	5.1	9.5
c1nc(N2CCOCC2)c2sc3nc(N4CCOCC4)c4c(c3c2n1)CCCC4	0.4	1.3
CNC(=O)CSc1nc2sc3c(c2c(=O)n1C)CCCC3	0.0	-2.1
Cc1ccc(N2CC(C(=O)Nc3cc(C)nn3-c3nc4c(c(=O)[nH]3)CCC4)CC2=O)cc1 (stereo not drawn)	11.4	3.9
Cc1ccc(N2CCn3c2nc2c3c(=O)n(CCN3CCCCC3)c(=O)n2C)c(C)c1	-2.0	-1.3
COc1ccccc1-c1n[nH]c(=S)n1-c1cccc(C)c1	-6.6	-5.2

Further structures follow.
SMILES	NPYLR7 ag	NPYLR7 ag max-min
O=C(CCC1CCCN(C(=O)c2ccsc2)C1)NCc1ccccc1Cl (stereo not drawn)	15.7	6.4
Cc1nc2ccc(C(=O)OC(C)C(=O)NC3CC3)cc2nc1C (stereo not drawn)	2.5	3.0
Cc1ccc(NC(=O)CSc2nccc(=O)[nH]2)c(S(=O)(=O)N2CCCCC2)c1	0.6	-0.7
CCc1nc(NC(=O)c2cc(Br)cn2C(C)C)n[nH]1	-23.5&2.3	-23.9&0.1
Cc1nc2cc(-c3ccc(-c4ccccc4)cc3)sc2c(=O)[nH]1	-1.6	49.8
COc1ccc2nc(N(Cc3ccccn3)C(=O)c3ccc([N+](=O)[O-])s3)sc2c1	-4.4	-7.7
CCN(CC)CCCC(C)NC(=O)c1cc(-c2ccc(C)c(C)c2)nn1-c1ccc(C)cc1C (stereo not drawn)	-5.0	2.6
Cc1nn(C)c2c1C(c1ccc(C#N)cc1)C(NC(=O)c1ccccc1)C(=O)N2 (stereo not drawn)	-1.6	-3.9
CNc1nnc(SCC(=O)NC(=O)c2ccc(OC(F)F)cc2)s1	2.0	1.1
O=S(=O)(NCC1CCCO1)c1ccc(Cl)cc1 (stereo not drawn)	10.4	2.0
O=C(c1coc(-c2ccccc2)n1)N1CCOc2ccccc2C1	-3.6	-3.2
O=C(NCc1cc2ccccc2o1)Nc1cccc(N2CCOCC2)c1	0.1	0.1
COCCN(C(=O)C1CC2CCC1C2)C(C)C(N)=O (stereo not drawn)	8.2	7.0
Cc1ccc(-c2nnc(-c3cc4ccccc4oc3=O)o2)cc1	-3.1	-8.3
COc1ccc(OCC(O)CN(Cc2ccccc2)Cc2cccc(F)c2)cc1 (stereo not drawn)	-2.1	6.4
Cc1cccc2c1CCN2C(=O)C1CCCOC1 (stereo not drawn)	-1.0	-4.9
C=CCn1c(C)cc(C(=O)CSc2nnc(NC(C)C)s2)c1C	-7.4	-13.4
COc1cccc2sc(NC(=O)C(C)NC(=O)c3cccs3)nc12 (stereo not drawn)	13.0	14.9
O=C(Nc1ccccc1)C1CCCN(C(=O)CCc2cccnc2)C1 (stereo not drawn)	-1.7	-1.9
Oc1oc(-c2cccc3ccccc23)nc1C=Nc1ccc(F)cc1	-0.5	-5.8
Cc1nc2ccccc2nc1CS(=O)(=O)c1ccc2c(c1)OCCCO2	2.9	2.9
CCCCOc1ccc(C(=O)Nc2ccc(-n3nc(OCC)nc3-c3ccc(C)cc3)cc2)cc1	25.0	20.4
Cc1cc(C)cc(CCC(=O)N(C)CCc2cn[nH]c2)c1	2.7	-0.7
O=C(O)c1ccccc1N=Nc1c(-c2ccccc2)[nH]n(-c2ccccc2)c1=O	-2.7	-9.9
O=C(OCc1cc2c(cc1Br)OCO2)c1cnccn1	-0.7	-5.3

Looked up above.
NPYLR7 ag max-min result of Cc1nn(C)c2c1C(c1ccc(C#N)cc1)C(NC(=O)c1ccccc1)C(=O)N2 (stereo not drawn) is entered as -3.9
NPYLR7 ag max-min result of COc1ccc2nc(N(Cc3ccccn3)C(=O)c3ccc([N+](=O)[O-])s3)sc2c1 is entered as -7.7

The list continues:
SMILES	NPYLR7 ag	NPYLR7 ag max-min
Cc1ccccc1Cn1c(=O)c2c(nc3n(CCCN4CCOCC4)c(C)cn23)n(C)c1=O	0.2	9.4
O=C(c1cccc(Br)n1)N1CCOC(c2ccccc2)C1 (stereo not drawn)	-2.0	1.3
COc1ccc(-c2ccccc2C(N)=O)c(OC)c1OC	8.8	5.0
Cc1nc(-c2cccc(NC(=O)CN3CCCC3C(=O)N(C)C)c2)cs1 (stereo not drawn)	1.1	-0.6
CCC(c1cccnc1)N(C)Cc1c(CO)cnc(C)c1O (stereo not drawn)	1.2	0.6
O=[N+]([O-])c1c(Oc2ccc(Cl)cc2)nc2sccn12	11.0	15.4
CC1(C)CC2CC(C)(CN2C(=S)NCc2cccs2)C1 (stereo not drawn)	3.9	2.4
COC(=O)c1c(NC(=O)c2cnn3c(C(F)(F)F)cc(-c4ccccc4)nc23)sc2c1CCC(C)C2 (stereo not drawn)	11.9	11.8
CN(C)c1ccc(/C=C2\SC(=Nc3ccccc3)NC2=O)cc1[N+](=O)[O-]	-4.7	-13.5
O=C(NC1CCCCC1)c1cnccn1	13.6	7.9
O=C(c1ccc2cccnc2c1O)N1CCOC(c2ccc(F)cc2)C1 (stereo not drawn)	6.2	4.6
Cc1ccc(C)c(NC(=O)C(C)NC(=O)c2ccc(Br)o2)c1 (stereo not drawn)	6.3	3.1
CCOC(=O)N1CCN(C(=O)c2cc3c(=O)n4cccc(C)c4nc3s2)CC1	-0.9	-2.7
COc1ccc(CCN(Cc2cccs2)C(=O)CN(C(=O)Nc2ccccc2C(F)(F)F)C(C)C)cc1OC	5.5	8.7
Cc1cc(C)c2cc(C(=O)N3CCC(n4cnc5ccc(C)cc54)CC3)[nH]c2c1	-4.6	7.1
CSCc1nc2sc(C(=O)NCCc3ccccc3)c(C)c2c(=O)[nH]1	-3.1	-3.1
CCN1CCC(C(=O)NC(c2ccc3c(c2)OCO3)c2ccccn2)CC1 (stereo not drawn)	12.1	0.0
COc1cccc(-n2c(=O)[nH]c3sc4c(c3c2=O)CCN(C(=O)c2cc(F)c(F)c(F)c2)C4)c1	11.6	3.0
Nc1ccc(-c2ccc3ncc4ccc(=O)n(-c5cccc(C(F)(F)F)c5)c4c3c2)cn1	-9.5	-14.0
CC(C)c1nnc(NC(=O)c2ccc(Br)cc2)s1	6.5	4.3
COc1cccc(CC(=O)N2CCC(C(=O)NC(c3nc(OC)cc(OC)n3)c3cccs3)CC2)c1 (stereo not drawn)	-7.0	-17.0
CN(C(=O)c1ccc2c(c1)[nH]c(=O)n2C1CCCC1)C1CCN(c2cccc(F)c2)CC1	1.8	0.9
Cc1cnc(CNC(=O)c2ccccc2NCc2sccc2C)cn1	0.4	-0.3
CC(C)N1CCCC(C)(C(=O)Nc2ccccc2)C1 (stereo not drawn)	0.4	-1.5
O=C(NNC(=O)C1CCCCC1)c1cc2ccccc2cc1O	0.7	-2.4

Additional structures
SMILES	NPYLR7 ag	NPYLR7 ag max-min
COc1ccc(CCNc2c([N+](=O)[O-])c(=O)n(C)c3ccccc23)cc1OC	6.4	1.6
COc1cc(OC)cc(-c2nn(-c3ccc(F)cc3)c(OC(C)=O)c2-c2ccc(NC(=O)Cc3ccccc3)cc2)c1	17.6	22.2
Cn1nc(Oc2nc(N3CCCCC3)nc(N3CCCCC3)n2)ccc1=O	3.3	4.3
CC(NS(=O)(=O)c1ccc(F)cc1)C(=O)NC1CCCC1 (stereo not drawn)	-8.9	-9.6
Cc1ccc(C)n1-c1ccc(C(=O)N2CCN(S(=O)(=O)c3cc(F)ccc3F)CC2)cc1	6.4	9.0
CCCCCCn1c2ccccc2c2nc3ccccc3nc21	4.2	3.1
CCOC(=O)c1nn(-c2ccc(C)cc2)c(=O)cc1NCc1ccc(Cl)cc1	8.4	4.7
Cc1ccn(CCC(=O)NC2CCCc3c2cnn3-c2ccc(F)cc2F)n1 (stereo not drawn)	11.5	3.6
COCCNC(=O)Cn1nc(C)c2cnn(-c3ccccc3)c2c1=O	4.0	-0.1
Cc1ccc(C(=O)N2CCC(n3nc(-c4ccccc4)cc3-c3ccccc3)CC2)c(Cl)n1	3.9	1.7
CCC(C)C(NC(=O)c1cc(C(F)(F)F)cc(C(F)(F)F)c1)C(=O)Nc1nnc(-c2ccc3c(c2)OCO3)s1 (stereo not drawn)	-3.0	13.1
CCC(C)c1cc(C(=O)Nc2n[nH]c(-c3cccc(C)n3)n2)on1 (stereo not drawn)	-1.8	-2.1
COc1cc(C(=O)N(CC#N)C2CC2)ccc1OC(F)F	7.2	6.3
Cn1nc(C(=O)O)c2c1CCN(C(=O)C1CCCN1S(C)(=O)=O)C2 (stereo not drawn)	16.4	12.0
